A1 apoptosis 2 – A1 inhibition read as caspase activation | caspase activation, % (test concentration not listed) | MEF A1-2A-BIM cells, caspase-Glo luminescence, 3 h; percent of clofoctol response, DMSO zero | 24,000 tested, under 10 active; in the data active means caspase activation above about 5.9%;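 further: wells of about 30 µL received 50 nL stock; the first replicate is given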
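System: mouse embryonic fibroblasts co-expressing A1 and BIM (A1-2A-BIM), primed for A1 dependence; amount: 2500 cells/well; doses: 50 nL pinned compound; schedule: cells settled overnight, compound exposure 3 h at 37 °C, 5% CO2; detection: Caspase-Glo 3/7 luminescence, 1 h at room temperature; read-out: Caspase-3/7 activation, seen as rise in luminescence signal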
An asterisk follows results filed as active. Not all compounds are listed. The share of hits here may be higher or lower than overall.

SMILES | A1 apoptosis 2
Cc1noc(C)c1NC(=O)N(C)C[C@@H]1Oc2c(NS(C)(=O)=O)cccc2C(=O)N([C@@H](C)CO)C[C@@H]1C | -0.8
COc1ccc(CN(C)C[C@@H]2Oc3ccc(NS(=O)(=O)c4ccc(OC)cc4)cc3C(=O)N([C@@H](C)CO)C[C@H]2C)cc1 | -0.6
O=C(NC1CC1)C1=C[C@@H](C2CCCCC2)C[C@@H](OCc2ccc(CO)cc2)O1 | -0.4
C[C@H]1CN([C@@H](C)CO)C(=O)c2cc(NS(C)(=O)=O)ccc2O[C@H]1CN(C)C(=O)NC1CCCCC1 | 0.9
C[C@H](CO)N1C[C@H](C)[C@@H](CN(C)C(=O)Nc2ccc(F)cc2)Oc2ccc(NC(=O)NC3CCCCC3)cc2CC1=O | 0.6
C[C@@H]1CN([C@@H](C)CO)C(=O)c2cc(NC(=O)c3ccccc3)ccc2O[C@@H](C)CCCCO[C@@H]1CN(C)C(=O)Nc1ccccc1 | 1.4
C[C@H](CO)N1C[C@H](C)[C@@H](CN(C)Cc2ccccc2C(=O)O)OCc2cn(nn2)CCCC1=O | -0.5
C[C@H]1CCCCO[C@@H](CN(C)C(=O)c2ccccc2)[C@@H](C)CN([C@@H](C)CO)C(=O)c2cc(NS(=O)(=O)c3ccccc3)ccc2O1 | 0.8
Cc1noc(C)c1S(=O)(=O)N(C)C[C@H]1Oc2ccc(NS(=O)(=O)c3cccs3)cc2CC(=O)N([C@@H](C)CO)C[C@@H]1C | -0.4
COc1ccc(NC(=O)N(C)C[C@@H]2Oc3ncc(C#Cc4ccc(F)cc4)cc3C(=O)N([C@H](C)CO)C[C@@H]2C)cc1 | 0.5
CC(C)NC(=O)Nc1ccc2c(c1)C(=O)N([C@@H](C)CO)C[C@H](C)[C@@H](CN(C)Cc1ccc3c(c1)OCO3)OCCCC[C@@H](C)O2 | 0.2
C[C@@H]1CCCCO[C@H](CN(C)Cc2ccc(C(=O)O)cc2)[C@@H](C)CN([C@H](C)CO)C(=O)c2cc(NS(=O)(=O)c3cccs3)ccc2O1 | 0.0
O=C(O)CCCCCCC(=O)Nc1ccc(C2OC(CSCCO)CC(c3ccccc3)O2)cc1 (stereo not drawn) | -0.5
C[C@@H]1CN([C@H](C)CO)C(=O)c2cc(NC(=O)Nc3ccc(C(F)(F)F)cc3)ccc2O[C@H]1CN(C)C(=O)NC1CCCCC1 | -0.7
C[C@@H]1CN([C@@H](C)CO)C(=O)c2cc(NS(C)(=O)=O)ccc2O[C@@H](C)CCCCO[C@@H]1CN(C)S(=O)(=O)c1cn(C)cn1 | -0.9
C[C@H]1CN([C@@H](C)CO)C(=O)c2cccc(NC(=O)C3CCOCC3)c2O[C@H]1CN(C)S(=O)(=O)c1ccc(F)cc1 | -0.1
COc1ccc(C#Cc2ccc3c(c2)[C@]2(C(=O)N3)[C@H](C(=O)N3CCN(c4ncccn4)CC3)[C@H]3C(=O)O[C@H](c4ccccc4)[C@H](c4ccccc4)N3[C@@H]2c2ccccc2OCCO)cc1 | 0.4
C[C@H](CO)N1C[C@H](C)[C@@H](CN(C)C)Oc2ccc(NC(=O)NC3CCCCC3)cc2CC1=O | -1.0
Cc1noc(C)c1NC(=O)N(C)C[C@H]1OCCCC[C@H](C)Oc2ccc(NS(=O)(=O)c3cn(C)cn3)cc2C(=O)N([C@H](C)CO)C[C@@H]1C | -0.1
COc1ccc(NC(=O)N(C)C[C@@H]2OCCCC[C@@H](C)Oc3ccc(NC(=O)Cc4ccccc4)cc3C(=O)N([C@H](C)CO)C[C@@H]2C)cc1 | 0.2
C[C@H](CO)N1C[C@H](C)[C@H](CN(C)Cc2ccc(C(=O)O)cc2)Oc2ccc(NC(=O)C3CCCCC3)cc2C1=O | -0.5
Cc1noc(C)c1S(=O)(=O)Nc1ccc2c(c1)C(=O)N([C@H](C)CO)C[C@@H](C)[C@H](CN(C)C(=O)Nc1ccc3c(c1)OCO3)O2 | -0.9
CNC[C@@H]1OCCCC[C@@H](C)Oc2ccc(NS(=O)(=O)c3ccc(F)cc3)cc2C(=O)N([C@H](C)CO)C[C@@H]1C | -2.5
COc1ccc(NC(=O)Nc2ccc3c(c2)C(=O)N([C@@H](C)CO)C[C@H](C)[C@H](CN(C)C(=O)Nc2ccc(F)cc2)OCCCC[C@H](C)O3)cc1 | -1.2
C[C@@H]1CN([C@@H](C)CO)C(=O)CCCn2cc(nn2)CO[C@H]1CN(C)Cc1cccc(O)c1 | -0.9
Later entries
SMILES | A1 apoptosis 2
C[C@H]1CN([C@@H](C)CO)C(=O)c2cccc(NC(=O)NC3CCCCC3)c2O[C@@H]1CN(C)S(=O)(=O)c1ccc(F)cc1 | -0.2
C[C@H](CO)N1C[C@H](C)[C@H](CN(C)Cc2ccc3c(c2)OCO3)Oc2c(NC(=O)c3nc4ccccc4s3)cccc2C1=O | -0.3
Cc1noc(C)c1S(=O)(=O)N(C)C[C@@H]1OCc2cnnn2CCCC(=O)N([C@@H](C)CO)C[C@H]1C | -0.7
C[C@@H]1CN([C@@H](C)CO)C(=O)c2cccc(NC(=O)c3ccncc3)c2O[C@H]1CN(C)S(C)(=O)=O | 0.0
COc1ccc(CN(C)C[C@H]2OCCCC[C@H](C)Oc3ccc(NS(=O)(=O)c4cccs4)cc3C(=O)N([C@H](C)CO)C[C@H]2C)cc1 | -1.3
COc1ccc(S(=O)(=O)N(C)C[C@H]2OCCCC[C@@H](C)Oc3ccc(NC(=O)CCC(F)(F)F)cc3C(=O)N([C@H](C)CO)C[C@@H]2C)cc1 | 0.8
O=C1O[C@H](c2ccccc2)[C@H](c2ccccc2)N2[C@H]1[C@@H](C(=O)N1CCCCCCC1)[C@]1(C(=O)Nc3ccc(C#CCCO)cc31)[C@H]2c1ccccc1OCCO | 0.3
C[C@@H]1CN([C@@H](C)CO)C(=O)c2cc(NC(=O)CCC(F)(F)F)ccc2O[C@@H](C)CCCCO[C@H]1CN(C)C | -0.7
COc1ccc([Si](C)(C)[C@@H]2[C@@H](CCO)O[C@]3(C(=O)N(Cc4ccc(N5CCOC5=O)cc4)c4ccccc43)[C@H]2C)cc1 | -0.2
C[C@H]1CN([C@@H](C)CO)C(=O)c2cccc(NC(=O)Nc3ccc4c(c3)OCO4)c2O[C@H]1CN(C)S(=O)(=O)c1ccccc1 | -0.9
C[C@H](CO)N1C[C@H](C)[C@H](CN(C)Cc2ccc(F)cc2)Oc2ncc(C#Cc3ccccc3)cc2C1=O | 1.1
Cc1noc(C)c1S(=O)(=O)Nc1ccc2c(c1)CC(=O)N([C@H](C)CO)C[C@@H](C)[C@H](CN(C)CC1CC1)O2 | 1.0
C[C@H](CO)N1C[C@H](C)[C@@H](CN(C)Cc2ccc3c(c2)OCO3)OCCCC[C@H](C)Oc2ccc(NC(=O)CCCN(C)C)cc2C1=O | -1.8
C[C@H](CO)N1C[C@H](C)[C@H](CN(C)CC2CC2)Oc2ccc(NS(=O)(=O)c3cccs3)cc2C1=O | -0.2
COc1ccc(S(=O)(=O)N(C)C[C@@H]2Oc3c(NC(=O)NC(C)C)cccc3C(=O)N([C@H](C)CO)C[C@@H]2C)cc1 | -2.0
COc1ccc(CN(C)C[C@H]2Oc3c(NS(=O)(=O)c4cn(C)cn4)cccc3C(=O)N([C@@H](C)CO)C[C@H]2C)cc1 | 0.9
C[C@@H]1CN([C@H](C)CO)C(=O)c2cc(NC(=O)NC3CCCCC3)ccc2O[C@@H](C)CCCCO[C@@H]1CN(C)Cc1ccccc1 | -0.7
C[C@H](CO)N1C[C@H](C)[C@@H](CN(C)S(=O)(=O)c2cn(C)cn2)Oc2ccc(NC(=O)Cn3cnnn3)cc2C1=O | -0.3
COCCOC(=O)N1C(=O)[C@@]2(c3cc(C#CC4(O)CCCCCC4)ccc31)[C@H](C(=O)NC[C@H](O)c1ccccc1)[C@H]1C(=O)O[C@H](c3ccccc3)[C@H](c3ccccc3)N1[C@@H]2c1ccccc1OCCO | -0.3
COc1ccc(S(=O)(=O)Nc2ccc3c(c2)C(=O)N([C@H](C)CO)C[C@@H](C)[C@H](CN(C)S(=O)(=O)c2ccccc2)OCCCC[C@@H](C)O3)cc1 | 2.5
Cc1ccc(S(=O)(=O)N(C)C[C@H]2OCCCC[C@H](C)Oc3ccc(NC(=O)CCC(F)(F)F)cc3C(=O)N([C@@H](C)CO)C[C@H]2C)cc1 | -0.6
COc1ccc(CN(C)C[C@H]2OCCCC[C@@H](C)Oc3ccc(NC(=O)Nc4ccccc4)cc3C(=O)N([C@H](C)CO)C[C@@H]2C)cc1 | 1.3
Cc1ccc(S(=O)(=O)Nc2cccc3c2O[C@@H](CN(C)C(=O)Nc2ccc(F)cc2)[C@H](C)CN([C@@H](C)CO)C3=O)cc1 | 1.1
C[C@@H]1CN([C@@H](C)CO)C(=O)Cc2cc(NS(=O)(=O)c3cccs3)ccc2O[C@@H]1CN(C)S(=O)(=O)c1ccc(Cl)cc1 | -0.2
O=C1O[C@@H](c2ccccc2)[C@@H](c2ccccc2)N2[C@@H](c3ccc(O)cc3)[C@]3(C(=O)Nc4ccc(C#CCCO)cc43)[C@@H](C(=O)O)[C@H]12 | -0.8

6 records drawn at random from the list so far:
SMILES | A1 apoptosis 2
COc1ccc(S(=O)(=O)Nc2ccc3c(c2)C(=O)N([C@H](C)CO)C[C@@H](C)[C@H](CN(C)S(=O)(=O)c2ccccc2)OCCCC[C@@H](C)O3)cc1 | 2.5
C[C@H](CO)N1C[C@H](C)[C@@H](CN(C)Cc2ccc3c(c2)OCO3)OCCCC[C@H](C)Oc2ccc(NC(=O)CCCN(C)C)cc2C1=O | -1.8
O=C1O[C@H](c2ccccc2)[C@H](c2ccccc2)N2[C@H]1[C@@H](C(=O)N1CCCCCCC1)[C@]1(C(=O)Nc3ccc(C#CCCO)cc31)[C@H]2c1ccccc1OCCO | 0.3
C[C@H](CO)N1C[C@H](C)[C@H](CN(C)Cc2ccc(F)cc2)Oc2ncc(C#Cc3ccccc3)cc2C1=O | 1.1
C[C@@H]1CN([C@H](C)CO)C(=O)c2cc(NC(=O)NC3CCCCC3)ccc2O[C@@H](C)CCCCO[C@@H]1CN(C)Cc1ccccc1 | -0.7
Cc1ccc(S(=O)(=O)N(C)C[C@H]2OCCCC[C@H](C)Oc3ccc(NC(=O)CCC(F)(F)F)cc3C(=O)N([C@@H](C)CO)C[C@H]2C)cc1 | -0.6

The listing continues.
SMILES | A1 apoptosis 2
C[C@@H]1CCCCO[C@H](CN(C)C(=O)Nc2ccc(F)cc2)[C@H](C)CN([C@H](C)CO)C(=O)c2cc(NS(=O)(=O)c3cn(C)cn3)ccc2O1 | 0.3
CC(C)=CCC[C@H](C)C/C=N/NC(=O)CCCCCCC(=O)Nc1ccccc1O | -1.6
C[C@H](CO)N1C[C@H](C)[C@H](CN(C)C(=O)Nc2ccc(F)cc2)Oc2ncc(C#CCC3CCCC3)cc2C1=O | -1.0
C[C@H]1CN([C@@H](C)CO)C(=O)CCCn2cc(nn2)CO[C@H]1CN(C)Cc1cccc(C(=O)O)c1 | -0.9
C[C@@H]1CCCCO[C@@H](CN(C)CC2CC2)[C@H](C)CN([C@@H](C)CO)C(=O)c2cc(NS(C)(=O)=O)ccc2O1 | -0.4
COc1ccc(CN(C)C[C@H]2Oc3ccc(NC(=O)Nc4c(C)noc4C)cc3CC(=O)N([C@@H](C)CO)C[C@@H]2C)cc1 | -0.1
C[C@H]1CN([C@@H](C)CO)C(=O)CCCn2cc(nn2)CO[C@H]1CN(C)CC1CCCC1 | -0.2
COCCOC(=O)N1C(=O)[C@@]2(c3cc(C#CCCO)ccc31)[C@H](C(N)=O)[C@H]1C(=O)O[C@H](c3ccccc3)[C@H](c3ccccc3)N1[C@@H]2c1ccc(OCCO)cc1 | 0.2
C[C@@H]1CN([C@@H](C)CO)C(=O)c2cc(NC(=O)Nc3ccc(C(F)(F)F)cc3)ccc2O[C@@H]1CN(C)C(=O)Nc1ccc(C(F)(F)F)cc1 | -1.1
COc1ccc(NC(=O)N(C)C[C@H]2Oc3ccc(NC(=O)Nc4ccc(C(F)(F)F)cc4)cc3CC(=O)N([C@@H](C)CO)C[C@@H]2C)cc1 | -0.6
C[C@@H]1CN([C@@H](C)CO)C(=O)c2cccc(NC(=O)c3nc4ccccc4s3)c2O[C@@H]1CN(C)CC1CC1 | -1.0
C[C@H](CO)N1C[C@H](C)[C@H](CN(C)S(=O)(=O)c2cn(C)cn2)Oc2ncc(C#CC(C)(C)O)cc2C1=O | 0.7
COc1ccc(CN(C)C[C@@H]2Oc3ccc(NS(=O)(=O)c4ccc(Cl)cc4)cc3CC(=O)N([C@@H](C)CO)C[C@@H]2C)cc1 | -0.4
C[C@@H]1CN([C@H](C)CO)C(=O)c2cccc(NS(=O)(=O)c3cn(C)cn3)c2O[C@H]1CN(C)C | 0.9
C[C@@H]1CN([C@H](C)CO)C(=O)c2cc(NC(=O)c3ccncc3)ccc2O[C@@H](C)CCCCO[C@@H]1CN(C)Cc1ccc(C(F)(F)F)cc1 | -0.3
CC(C)(C)OC(=O)CC[C@@]12N=C(c3ccc(OCCCO)cc3)O[C@@H]1c1ccccc1CN(C(=O)c1ccccc1)C2=O | -0.5
CNC[C@H]1Oc2ccc(NC(=O)Nc3ccc(F)cc3)cc2C(=O)N([C@H](C)CO)C[C@H]1C | 0.5
Cc1noc(C)c1S(=O)(=O)Nc1ccc2c(c1)C(=O)N([C@@H](C)CO)C[C@H](C)[C@H](CN(C)C(=O)CCCN(C)C)OCCCC[C@@H](C)O2 | -0.9

From PubChem BioAssay
